# Source: PubChem BioAssay (Broad Institute)
# STK33 inh – inhibitors of purified STK33 kinase, primary screen, biochemical, ADP-Glo luminescence, homogeneous, cell-free | Serine/threonine-protein kinase 33 (Homo sapiens), Q9BYT3 | MBP phosphorylation | inhibition, % at 10 µM | 320,000 compounds, 0.073% hits | AID 2661, 2010;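 active = inhibition at or above 25%, using the most active replicate where run in duplicate; inactive = inhibition below 25%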
# Target sequence (Q9BYT3 whole entry, looked up): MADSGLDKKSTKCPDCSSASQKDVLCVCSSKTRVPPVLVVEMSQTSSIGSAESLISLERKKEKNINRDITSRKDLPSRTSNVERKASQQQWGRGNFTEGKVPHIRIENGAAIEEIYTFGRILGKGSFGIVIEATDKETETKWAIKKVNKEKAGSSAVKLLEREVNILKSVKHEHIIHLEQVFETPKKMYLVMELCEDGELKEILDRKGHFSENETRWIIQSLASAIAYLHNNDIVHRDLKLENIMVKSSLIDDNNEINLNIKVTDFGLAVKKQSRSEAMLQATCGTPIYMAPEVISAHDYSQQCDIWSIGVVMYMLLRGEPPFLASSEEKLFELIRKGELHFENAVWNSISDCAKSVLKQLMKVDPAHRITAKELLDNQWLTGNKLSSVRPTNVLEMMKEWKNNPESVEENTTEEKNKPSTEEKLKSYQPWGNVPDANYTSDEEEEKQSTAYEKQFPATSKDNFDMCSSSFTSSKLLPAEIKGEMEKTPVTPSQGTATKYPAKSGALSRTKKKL
# Active calls of the source: *. Some of the compounds tested; most or all hits stand in other tables.
SMILES,STK33 inh
Cc1c(NC(=O)CCCCCN2C(=O)C3C4C=CC(C4)C3C2=O)c(=O)n(-c2ccccc2)n1C (configuration not stated),-0.5
Cc1[nH]c2ccccc2c1SCC(=O)NNC(=O)Nc1ccc(OC(F)(F)F)cc1,-1.3
COc1ccc(OC)c(-n2c(-c3cc(-c4ccco4)[nH]n3)n[nH]c2=S)c1,-1.8
CCN(CC(=O)Nc1c(F)cccc1F)C(=O)CNC(=O)COc1ccccc1,-0.9
Cn1c(CSCc2ccc(Cl)cc2)nnc1SCC(=O)Nc1nccs1,-0.2
CC(C)(C)NC(=O)NC(=O)COC(=O)c1cc(=O)[nH]c2ccccc12,1.3
CCCOc1ccc(NC(=O)C2CC(=O)N/C(=N/N=C(C)/C=C/c3ccc(N(C)C)cc3)S2)cc1 (configuration not stated),0.8
Cc1csc(NC(=O)c2cc3c(s2)-c2ccccc2OC3)n1,1.1
CC(C(=O)c1ccccc1)n1c(N2CCOCC2)nc2c1c(=O)n(C)c(=O)n2C (configuration not stated),-0.1
COC(=O)c1cc(NC(=O)CN(C)Cc2ccccc2)cc(C(=O)OC)c1,0.6
Clc1ccc(-c2cn3cc(Cl)ccc3n2)cc1,-1.6
CCc1c(C)c2ccc(O)c(CN(C)C)c2oc1=O,0.8
CN(C)CCN(CC1CCCN(Cc2ccccc2F)C1)C(=O)c1ccc(F)cc1 (configuration not stated),0.0
COC(=O)c1c(C(=O)NCc2ccccc2)ncn1CC(O)COc1ccccc1 (configuration not stated),-0.3
CN1CCN(Cc2c(O)ccc3c(-c4ccccc4)cc(=O)oc23)CC1,-6.9
CCN(CC(=O)Nc1ccccc1C(F)(F)F)C(=O)c1cccc(S(=O)(=O)N2CCN(C)CC2)c1,6.0
COc1ccccc1NS(=O)(=O)c1cccc(NC(=O)NCCCl)c1,0.3
COCCn1nnnc1C(C(C)C)N1CCCC(C)C1 (configuration not stated),-1.5
CC(=O)/C(N)=N/Nc1cccc(Cl)c1,1.9
CC(=O)NS(=O)(=O)c1ccccc1,-1.1

# Ordered by the number under STK33 inh (ascending): 5 of the compounds above
SMILES,STK33 inh
CN1CCN(Cc2c(O)ccc3c(-c4ccccc4)cc(=O)oc23)CC1,-6.9
CC(=O)NS(=O)(=O)c1ccccc1,-1.1
CCc1c(C)c2ccc(O)c(CN(C)C)c2oc1=O,0.8
CC(=O)/C(N)=N/Nc1cccc(Cl)c1,1.9
CCN(CC(=O)Nc1ccccc1C(F)(F)F)C(=O)c1cccc(S(=O)(=O)N2CCN(C)CC2)c1,6.0

# (more compounds)
SMILES,STK33 inh
Cc1ccc(NC(=O)C2CCN(c3cnccn3)CC2)cc1,0.0
O=C(N/N=C/c1cccc(Br)c1)c1ccc(N2CCCC2=O)cc1,-3.2
Cc1cc(NCCO)nc(N2CCOCC2)n1,-0.9
COC(=O)c1sccc1NC(=O)CN1CCN(c2ccc(F)cc2)CC1,1.6
O=C(CCc1ccccc1)NNC(=O)c1cccc(F)c1,-2.4
COc1ccccc1C(CNC(=O)C(C)Oc1ccc(Br)cc1)N1CCCC1 (configuration not stated),-0.1
CCn1cc(C2=NC(CC(C)C)CO2)c2ccccc21 (configuration not stated),0.6
O=C(CCCOc1ccc(Cl)cc1Cl)NCCc1nnc2ccccn12,-1.0
COc1ccccc1CNC(=O)Cn1cccc1C(=O)c1ccccc1C,-0.4
Cn1c(=O)c2cc(S(=O)(=O)NCCC(=O)NC3CCCCCC3)ccc2n(C)c1=O,-1.1
COc1ccc(N2C(=O)[C@@H]3[C@H](C2=O)[C@H](C(=O)c2ccc(OC(C)=O)cc2)N2N=CC=C[C@@H]32)cc1,-0.2
O=C(CCC(=O)Nc1ccccc1)N/N=C/c1ccncc1,-0.6
Cn1c(N)c(C(=O)COC(=O)Cn2cc(C(F)(F)F)ccc2=O)c(=O)n(C)c1=O,0.4
O=C(NCC1CCCO1)c1ccc(Oc2ccc([N+](=O)[O-])cc2)cc1 (configuration not stated),-0.4
CCn1c(C)c2c(C)nnc(C)c2c1C,-0.3
O=C(NCCC1=CCCCC1)c1cccc(S(=O)(=O)N2CCCCC2)c1,0.1
NC(=O)C1CCN(CC(=O)Nc2nccs2)CC1,-1.5
COC(=O)c1ccc(NC(=O)c2ccc(OC(C)=O)c(OC)c2)cc1,-0.7
O=[N+]([O-])c1ccc(N2CCN(S(=O)(=O)c3ccccc3)CC2)cc1NCCN1CCOCC1,-1.3
O=C(COc1ccc2c(c1)CCC2)N1CCN(c2ccc(F)cc2)CC1,1.1

# Structures above containing bromine, in the order listed:
SMILES,STK33 inh
O=C(N/N=C/c1cccc(Br)c1)c1ccc(N2CCCC2=O)cc1,-3.2
COc1ccccc1C(CNC(=O)C(C)Oc1ccc(Br)cc1)N1CCCC1 (configuration not stated),-0.1

# Later entries
SMILES,STK33 inh
COc1cc(OC)cc(C(=O)Nc2ccc(N3CCN(C(=O)c4cccs4)CC3)cc2)c1,-0.4
CCOC(=O)Cn1c(=O)oc2cc(S(=O)(=O)NCc3ccccn3)ccc21,-0.1
Cc1cc(C(=O)Nc2ccccc2C)n(-c2ccccc2)n1,-1.5
COC(=O)c1c(NC(=O)c2nc3ccccc3s2)sc2c1CC(C)(C)NC2(C)C,-0.1
CCCCNC(=O)C(=O)N/N=C/c1ccc(OCC(=O)Nc2cccc(OC)c2)c(OC)c1,-1.3
Cn1ncc(N=Cc2ccc([N+](=O)[O-])cc2)c1C(=O)N1CCOCC1,-2.1
O=C(NCCc1ccc(F)cc1)c1cccc(NC(=O)c2ccccc2)c1,-1.1
CCOC(=O)c1cnn(CCOC(=O)c2ccccc2)c1NC(=O)c1ccccc1,-1.6
O=C(CSCCOc1ccccc1)NCc1ccncc1,-4.0
COc1cc(C(=O)NCC2CCCO2)ccc1OCc1c(C)noc1C (configuration not stated),-0.6
CCn1cc(C(=O)NCCCO)c(=O)c2cc(F)c(N3CCN(C)CC3)cc21,1.6
O=C(CSc1nnc(Cc2ccccc2)n1Cc1ccco1)NC12CC3CC(CC(C3)C1)C2,-0.9
CCOc1ccccc1C1C(C(=O)OC)=CN(C)C=C1C(=O)OC,-2.0
Cc1cccc(NS(=O)(=O)c2cccc(C(=O)NCC3(N4CCCCC4)CCCCC3)c2)c1,-0.1
O=C(O)CCSC(=S)N1CCOCC1,-1.6
CCOC(=O)c1oc2ccccc2c1NC(=O)COc1cccc(OC)c1,-1.7
N#C/C(=C\c1c(Oc2ccc(Cl)cc2)nc2ccccn2c1=O)C(=O)NC1CCS(=O)(=O)C1 (configuration not stated),1.1
O=C(O)C1CCCN1S(=O)(=O)c1cc(Cl)ccc1Cl (configuration not stated),-1.0
Cc1ccc(-c2c(C(=O)O)c3ccccc3[nH]c2=O)cc1,-0.8
O=C(OCc1nnc(-c2ccc(Cl)cc2)o1)C12CC3CC(CC(O)(C3)C1)C2,-1.4
CCOC(=O)c1c(S(=O)(=O)NCC(=O)Nc2ccc(C)cc2)c(C)n(C)c1C,-2.3
CSc1ccc(S(=O)(=O)NCC(=O)OCC(=O)NC2(C#N)CCCCC2)cc1[N+](=O)[O-],1.0
CCc1ccccc1NC(=O)CN(C)Cc1nc(N)nc(Nc2ccccc2C)n1,0.7
COc1ccc(-c2cc(C(=O)N3CCCCCC3)c3cc(C)ccc3n2)cc1,0.2
O=C(Cc1ccccc1[N+](=O)[O-])NCc1ccc(Cl)cc1,0.1
CN(C)C(=O)c1ccc(=O)n(Cc2ccc(Cl)cc2Cl)c1,-0.1
O=S(=O)(NCCCN1CCOCC1)c1ccc(Cl)cc1,0.2
CCOC(=O)C1=C(CS(=O)(=O)c2ccccc2)NC(=O)NC1c1ccccc1OCC (configuration not stated),-0.9
CCOC(=O)C1=C(c2ccccc2)N=c2s/c(=C\c3ccc(O)cc3)c(=O)n2C1c1cccs1 (configuration not stated),-1.5
O=[N+]([O-])c1ccc2[nH]ncc2c1,2.0
CCOC(=O)N1CCN(C(=O)c2cc(COc3ccc(OC)cc3Cl)on2)CC1,0.2
Cn1c(COc2nnc(-c3ccc(Cl)cc3)c3ccccc23)nc2ccccc21,1.3
COc1ccc(-n2nc3c(N4CCC(C(=O)NCCc5ccco5)CC4)nnc(C)c3c2C)cc1,1.0
CCOC(=O)Cn1nc(-c2ccccc2)c2cnc3ccc(C)cc3c21,0.1
Cn1nc(C(=O)NCc2ccccc2Cl)c2c1-c1ccccc1S(=O)(=O)C2,0.6
Cc1ccccc1NC(=O)Cn1nnc(-c2ccc(CN3CCC(C)CC3)cc2)n1,-0.5
COc1ccccc1NS(=O)(=O)c1cccc(NC(=S)NCCN2CCOCC2)c1,0.2
Cc1cc(C(=O)NNc2c(Cl)cccc2Cl)no1,0.3
Clc1cccc(-c2ccc(CNCCCN3CCOCC3)o2)c1,-0.1
COc1cc(/C=N/NC(=S)NCCN2CCOCC2)cc(OC)c1OC,-0.6

# Given with each value named: entries from further up
CCCCNC(=O)C(=O)N/N=C/c1ccc(OCC(=O)Nc2cccc(OC)c2)c(OC)c1
- STK33 inh: -1.3
O=C(NCCc1ccc(F)cc1)c1cccc(NC(=O)c2ccccc2)c1
- STK33 inh: -1.1

# Later entries
SMILES,STK33 inh
Cc1cccc(OCCNC(=O)c2cc(-n3cnnc3)ccc2Cl)c1,-0.8
Cc1ccccc1-n1c(SC(C)C(N)=O)nnc1-c1cccnc1 (configuration not stated),-3.1
COc1cc(C2C(C(=O)c3cccs3)=C(O)C(=O)N2c2cc(C)on2)ccc1O (configuration not stated),-1.9
O=C(Nc1ccc(Nc2ccccc2)cc1)c1ccc(Cl)c([N+](=O)[O-])c1,-1.1
CC(C)CCC(C(=O)NC(C)c1ccccc1)C(=O)NC(C)c1ccccc1 (configuration not stated),-2.8
N#CC1=C(N)Oc2ccc3ccc(O)cc3c2C1c1cccnc1 (configuration not stated),-2.2
Cc1ccc(C(=O)N2CCC(C)CC2)cc1C,2.6
O=c1ccnc(SCc2ccccc2Cl)[nH]1,-1.6
COc1ccccc1-n1cnnc1SCC(=O)N1CCN(S(=O)(=O)c2ccccc2)CC1,0.0
Cc1cc(C)n(C(=O)CSc2nc3ccccc3o2)n1,0.6
CC/C(=N\NC(=O)c1c(C)nc2ccccn12)c1ccc(Cl)cc1,1.0
Cc1ccc(NC(=O)C2CC(O)CN2C(=O)Oc2ccccc2)c(C)c1 (configuration not stated),-0.4
CCn1c(=S)[nH]c2sc3c(c2c1=O)CCCC3,-0.8
CCOC(=O)c1ccc(NC(=O)c2cc(C)nn2-c2ccccc2)cc1,-1.8
Cc1cccc(NC(=O)c2nc[nH]c2C(=O)N[C@@H](Cc2ccccc2)C(=O)OC(C)(C)C)c1,-0.4
CCNC(=S)N1CCNC(=O)C1CC(=O)OC (configuration not stated),3.6
CC(=O)c1cccc(N2C(=NC(=O)COc3ccccc3)SC3CS(=O)(=O)CC32)c1 (configuration not stated),1.7
COc1ccc(OC)c(S(=O)(=O)N2CCC(C(=O)NC(C)c3ccccc3)CC2)c1 (configuration not stated),-0.5
O=C(O)c1cc2c(cc1NC(=O)c1c(F)cccc1Cl)OCCCO2,0.0
COc1cccc(Nc2nc(C)cc(C)c2C#N)c1,-3.4
COc1ccc(/C=N/NC(=O)C[n+]2ccccc2)c(OC)c1,-2.2
Cc1ccc(C(=O)c2c(NC(=O)c3ccncc3)sc3c2CCCC3)cc1,-0.4
COc1cc(/C=N\NC(=O)c2cccc(Cl)c2)ccc1Oc1ccc([N+](=O)[O-])cn1,-2.4
Cc1nn(-c2ccc(F)cc2)c(N)c1C1(O)C(=O)Nc2ccccc21 (configuration not stated),0.4
Cc1ccc(C(=O)CSc2nnc(COc3cc(C)cc(C)c3)o2)cc1,-1.3
COc1ccccc1/C=C1\SC(=S)N(CCC(=O)N2CCCCC2CCO)C1=O (configuration not stated),-0.3
COc1cc2c(cc1O)CCN(C(=O)c1ccco1)C2C (configuration not stated),-4.0
Cc1cc(NC(=O)c2ccccc2)ncc1NC(=O)c1cccs1,4.2
COc1ccc(C(=O)NCc2cc(C(C)C)no2)cc1OC1CCN(C(C)C)CC1,-0.1
Cc1ccc(S(=O)(=O)N(C)c2cc(S(N)(=O)=O)c(C)cc2C)cc1,1.3
Cc1cc(=O)[nH]c(SCC(=O)NCC2CCCCC2)c1C#N,-0.7
Cc1ccc(OCc2cc(C(=O)NCC3COCCO3)no2)cc1C (configuration not stated),1.1
O=C(C1=C(O)C(=O)N(c2ccccc2)C1c1ccc([N+](=O)[O-])cc1)c1cccs1 (configuration not stated),-0.3
CC(Cc1ccccc1)N1C(=O)c2cccc([N+](=O)[O-])c2C1=O (configuration not stated),-1.6
CCCc1nnc(SCC(=O)Nc2ccc(Cl)cc2Cl)o1,-1.1
CC(C)N=C1SCC(C)(/C=N/O)S1 (configuration not stated),-1.4
COc1ccc(-c2nc(C#N)c(N3CCc4ccccc4C3)o2)cc1OC,-1.5
CC(C)CCNC(=O)c1ccc(Cl)c(NC(=O)Cc2ccccc2)c1,-0.2
CN(C)S(=O)(=O)N1CCC(Oc2cccc(C(=O)N3CCCCCC3)c2)CC1,-0.9
COc1ccc(Nc2nc(-c3ccccc3)cs2)cc1,-0.8

# Single entries from above:
# In STK33 inh, COc1ccc(Nc2nc(-c3ccccc3)cs2)cc1 shows -0.8
# In STK33 inh, CC(C)N=C1SCC(C)(/C=N/O)S1 (configuration not stated) shows -1.4
# In STK33 inh, CC(Cc1ccccc1)N1C(=O)c2cccc([N+](=O)[O-])c2C1=O (configuration not stated) shows -1.6
# In STK33 inh, CCCc1nnc(SCC(=O)Nc2ccc(Cl)cc2Cl)o1 shows -1.1
# In STK33 inh, CN(C)S(=O)(=O)N1CCC(Oc2cccc(C(=O)N3CCCCCC3)c2)CC1 shows -0.9

# (more compounds)
SMILES,STK33 inh
Cc1ccc(-n2nc(C(=O)N3CCN(C)CC3)c3c4ccccc4n(C)c3c2=O)cc1,-1.8
CC(=O)[C@H]1CC[C@H]2[C@@H]3CCC4=CC(=O)CC[C@]4(C)[C@H]3[C@H](O)C[C@]12C,1.0
CCCCC(=O)Nc1ccc(NC(=O)C(C)C)cn1,-1.1
COc1ccc(O)c(C(=O)c2cc(C(=O)NCCc3ccccc3)c(=O)n(CCc3ccccc3)c2)c1,-0.2
